# From PubChem BioAssay
# NPR1 antag – human Npr1 receptor antagonism. P16066. HEK293 hNpr1 GloSensor cGMP, ANP-stimulated luminescence. Potency, µM (top dose mostly 46.3 µM), for inactives: at the highest dose activity change, negative = inhibition, most hits filed as inhibitors. hit rate 1.6% among 76,000; active = well fitted inhibition curve with a large enough effect; inconclusive = small, poorly fitted or top-dose-only effect; inactive = no such curve, though single readings can be large or run the other way;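 also: nearly all actives have a fitted effect of over 60% in size; nearly all hits also lower the signal before the agonist is added; a reference antagonist and vehicle were the controls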
# Target sequence (P16066 whole entry, looked up): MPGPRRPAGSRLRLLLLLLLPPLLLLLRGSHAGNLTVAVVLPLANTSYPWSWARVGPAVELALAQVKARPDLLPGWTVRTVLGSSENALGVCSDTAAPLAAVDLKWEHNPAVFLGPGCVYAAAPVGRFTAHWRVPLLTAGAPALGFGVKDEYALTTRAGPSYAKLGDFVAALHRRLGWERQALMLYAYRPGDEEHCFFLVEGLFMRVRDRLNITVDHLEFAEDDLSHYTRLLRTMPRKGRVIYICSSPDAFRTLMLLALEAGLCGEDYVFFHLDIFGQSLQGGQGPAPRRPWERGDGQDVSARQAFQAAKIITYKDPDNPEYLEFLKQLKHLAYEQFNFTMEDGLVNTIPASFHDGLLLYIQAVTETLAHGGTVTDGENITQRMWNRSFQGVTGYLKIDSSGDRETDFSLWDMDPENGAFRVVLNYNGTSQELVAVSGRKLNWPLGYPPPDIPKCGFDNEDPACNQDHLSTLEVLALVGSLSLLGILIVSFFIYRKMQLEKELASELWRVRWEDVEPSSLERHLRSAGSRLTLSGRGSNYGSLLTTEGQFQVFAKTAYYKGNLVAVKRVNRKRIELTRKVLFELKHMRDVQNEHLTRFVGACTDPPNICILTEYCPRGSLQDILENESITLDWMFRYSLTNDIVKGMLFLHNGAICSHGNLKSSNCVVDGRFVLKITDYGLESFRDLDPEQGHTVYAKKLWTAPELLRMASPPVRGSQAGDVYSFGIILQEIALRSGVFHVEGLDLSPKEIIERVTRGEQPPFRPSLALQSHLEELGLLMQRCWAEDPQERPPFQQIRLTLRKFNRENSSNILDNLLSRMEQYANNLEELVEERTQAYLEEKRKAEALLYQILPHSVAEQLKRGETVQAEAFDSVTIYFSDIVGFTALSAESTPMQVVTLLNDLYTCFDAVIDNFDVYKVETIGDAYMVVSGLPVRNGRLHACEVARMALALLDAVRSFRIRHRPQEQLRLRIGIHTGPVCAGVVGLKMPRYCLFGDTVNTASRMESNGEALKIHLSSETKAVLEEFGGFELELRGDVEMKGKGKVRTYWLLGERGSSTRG
#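 HEK293 cells stably expressing human Npr1 and cGMP GloSensor pGS-40F, loaded 2 h with 2% GloSensor reagent, given compound 30 min at room temperature. Luminescence read before and 20 min after 0.1 nM hNppA.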
# The depositor's hits bear a star; ? = inconclusive; [ ] = another dose, or the depositor's remark. % is scaled to controls: 0 for no effect and ±100 for the full control effect; potency is read from the fitted curve at half-maximal effect.
SMILES,NPR1 antag
COCCn1ccc2c(C3=CCOCC3)nc(-c3cccc4[nH]ncc34)cc21,-11.2%[70.6 µM]
Cc1cc(C(=O)N[C@@H]2CN(Cc3ccccn3)C[C@H]2CN(C)C)n[nH]1,-1.2%
Cc1cc(=O)n(CC(=O)Nc2cccc(C(F)(F)F)c2)c(N2CCOCC2)n1,-12.5%
CCCC(=O)NC1CCN(c2ccc(F)cc2)C1=O (stereo unspecified),-5.3%
Cc1c(-c2ccccc2F)[nH]c2ccc(CNC(=O)CCN3CCCO3)cc12,-15.3%
CCC(CC)C(=O)N1CC[C@H]2NC(=O)N(c3ccc(C(C)C)cc3)C(=O)[C@H]21,-11.0%[70.6 µM]
O=C(NCCC1CCCCC1)c1ccc2nccn2c1,-16.3%[70.6 µM]
Cc1nc(C2CCN(C(=O)CNC(N)=O)CC2)cc(N2CCOCC2)n1,2.3%
O=C(NC1CCN(c2cc(-c3ccc(F)cc3)[nH]n2)CC1)c1ccc2[nH]ccc2c1,-16.4%
CC(C)CCN1CCCC(COc2ccccc2C(=O)NC2CC2)C1 (stereo unspecified),-17.8%
Cc1onc(-c2cnn(C)c2NCCc2ccccc2)c1C(=O)N1CCN(C)C(=O)C1,2.6%[70.6 µM]
CCc1ccc(N2CC(c3noc(C4(c5ccc(OC)cc5)CC4)n3)CC2=O)cc1 (stereo unspecified),?
COc1ccccc1C(=O)Nc1ccc2c(c1)CN(Cc1ccc(F)cc1)C(=O)C(C)O2 (stereo unspecified),-23.1%
Cc1noc([C@@H]2CN(Cc3c(C)n[nH]c3C)C[C@H]2CO)n1,-1.4%
COC(=O)c1ccc(-c2noc(C[C@@H]3O[C@H](CNS(C)(=O)=O)[C@@H](O)[C@H]3O)n2)cc1,1.2%[70.6 µM]
O=C(Cn1nc2c(cc1=O)CCCCC2)N1CCN(CCc2ccncc2)CC1,3.6%
Cc1ccc(CN2C[C@@H](NC(=O)c3cccnc3)C[C@H]2CO)s1,0.5%
CN1CCN([C@H]2CCN(C(=O)c3ccc(C#N)nc3)C[C@H]2CCCO)CC1,-0.9%
CCOc1cccc(CNC(=O)c2c(OCC(C)C)cc(=O)n3c2CCCCC3)c1,2.8%
Cc1cccc(OC[C@H]2C[C@@H](NC(=O)C3CCCC3)[C@H](O)[C@@H]2O)n1,1.9%[70.6 µM]
COC(=O)[C@H](Cc1ccc(OC)cc1)NC(=O)[C@@H]1CN(C(=O)c2cccc(F)c2)CCN1C(=O)N1CCOCC1,-2.2%
CC(C)(C)CC(=O)N1CC[C@@H](CC(=O)O)[C@@H](CCN2CCC[C@H]2C(N)=O)C1,7.1%[70.6 µM]
COc1ccccc1CCC(=O)N1CCC(Cc2nncn2C)CC1,4.1%
CC(Cc1cnccn1)NC(=O)c1csc2nc(-c3cccc(C(F)(F)F)c3)cn12 (stereo unspecified),?
COc1ccccc1OCc1cc(C(=O)N2CCCN3CCC[C@H]3C2)n[nH]1,1.0%
CCn1ncc(CN2CCCN(Cc3ccncc3)C(c3ccccc3)CC(=O)NCC2)c1C (stereo unspecified),3.2%
CN(C)C(=O)c1cccnc1OC1CCN(C(=O)Nc2ccc(Cl)cc2F)C1 (stereo unspecified),0.5%
Cc1n[nH]c(C)c1C(N)C(=O)N1CCC(c2nnc3n2CCCCC3)CC1 (stereo unspecified),4.0%
O=C(Nc1cccc(C(F)(F)F)c1)O[C@@H]1CO[C@H]2[C@@H]1OC[C@@H]2Nc1nccc(-c2ccccc2)n1,?
CS(=O)(=O)N(C1CC1)C1CCOC2(CCN(C(=O)Cc3ccccc3)CC2)C1 (stereo unspecified),-3.0%
CCCNC(=O)Nc1ccc(OC2CCN(C(=O)CC)C2)nc1 (stereo unspecified),-8.7%
CCc1ccc(C(=O)N2CCC(Cc3nc(C(C)C)no3)CC2)cc1,15.8µM*
COc1cccc(-c2cc3c(=O)n(CCNC(=O)c4ccccc4F)ccn3n2)c1,-7.9%
O=C(NCCc1noc(C2CC2)n1)c1cccs1,13.6%
CC(C)(O)CCc1cccc(C(=O)NCc2ccc3c(c2)OCCCO3)c1,?
CCO[C@H]1CN(C(=O)C(C)(C)Oc2ccc3c(c2)CCC3)C[C@@H]1O,3.9%

# A second format for part of the listing above.
smiles	NPR1 antag
CCc1ccc(C(=O)N2CCC(Cc3nc(C(C)C)no3)CC2)cc1	15.8µM*
O=C(NC1CCN(c2cc(-c3ccc(F)cc3)[nH]n2)CC1)c1ccc2[nH]ccc2c1	-16.4%

# Next compounds:
SMILES,NPR1 antag
COc1ccc(C(=O)N2C[C@@H](CO)[C@H](c3ccncc3)C2)cc1F,-0.2%
O=C(CCc1ccccc1F)NC1CCCN(C2CCCCCC2)C1 (stereo unspecified),0.9%
COCCNC(=O)CCCN1C(=O)COc2ccc(C(=O)COc3ccc(C(C)(C)C)cc3)cc21,-16.1%
CCC(=O)N1CCC(Cc2nc(-c3ccccc3)n[nH]2)CC1,4.0%
c1ccc(-c2ccnc(NCCc3c[nH]c4ccccc34)n2)nc1,-26.6%
CC(C)c1noc(C2CCCN(C(=O)c3ccoc3)CCC(=O)NCC2)n1 (stereo unspecified),3.1%
CN1C(=O)CS(=O)(=O)C12CCN(C(=O)Cc1ccc(Cl)cc1)CC2,4.8%
COc1cccc(C(=O)N2CCC(c3nc(C4CCOC4)no3)CC2)c1 (stereo unspecified),-2.8%
CCC(c1ccccc1)N1Cc2cc(NS(=O)(=O)c3ccc(Cl)cc3)ccc2OC(C)C1=O (stereo unspecified),-23.5%
O=C(NCc1ccc(F)cc1)NC1CCc2n[nH]c(=O)n2CC1 (stereo unspecified),-0.6%
CCC(C(=O)NCCn1ccn2nc(-c3cccc(OC)c3)cc2c1=O)c1ccccc1 (stereo unspecified),?
COc1ccc(-c2nc(C(C)C)nc3c2CN([S+](=O)([O-])c2cccc(C(F)(F)F)c2)CC3)cc1,-2.7%
Cc1cccc(NC(=O)CN2C(=O)NC(c3ccccc3Cl)C3=C2COC3=O)c1C (stereo unspecified),4.7%
CCc1nncn1C1CCN(S(=O)(=O)c2cc(Cl)ccc2OC)CC1,-6.9%
COCCCNC(=O)c1c(OCC(C)C)cc(=O)n2c1CCCCC2,3.9%
CCc1ncc(C(=O)Nc2nn(CC(F)(F)F)c3cc(OC(C)C)ccc23)cn1,0.6%
CCc1ccc(CNC(=O)C2(CC)CCCCC(=O)N2)cc1 (stereo unspecified),7.5%
Cn1ncc(N2CCC(CNC(=O)c3cccc4ncccc34)C2)cc1=O (stereo unspecified),-0.4%
Cc1cc2nc3n(c(=O)c2n1CC(=O)NC(C)CCc1ccccc1)CCCC3 (stereo unspecified),-13.2%
COCCOC1CCOC2(CCN(C(=O)c3sccc3C)CC2)C1 (stereo unspecified),4.8%
CNC(=O)c1cc[nH]c1C1CCCN(C(=O)c2cccs2)C1 (stereo unspecified),1.9%
Cc1cccc(OCC2(CNCC3CCCC3)C[C@@H](O)[C@@H](O)C2)n1 (stereo partly specified),-12.7%[70.6 µM]
COCCNC(=O)[C@@H]1C[C@H](Oc2ccccc2)CN1C(=O)CC1CCCC1,-0.8%
CC1(C)CC(NC(=O)C2CCN(c3nc(-c4ccccc4)nc4c3CCC4)CC2)CCO1 (stereo unspecified),5.6%

# Grouped by structure: those above containing sulfur (11)
SMILES,NPR1 antag
COC(=O)c1ccc(-c2noc(C[C@@H]3O[C@H](CNS(C)(=O)=O)[C@@H](O)[C@H]3O)n2)cc1,1.2%[70.6 µM]
Cc1ccc(CN2C[C@@H](NC(=O)c3cccnc3)C[C@H]2CO)s1,0.5%
CC(Cc1cnccn1)NC(=O)c1csc2nc(-c3cccc(C(F)(F)F)c3)cn12 (stereo unspecified),?
CS(=O)(=O)N(C1CC1)C1CCOC2(CCN(C(=O)Cc3ccccc3)CC2)C1 (stereo unspecified),-3.0%
O=C(NCCc1noc(C2CC2)n1)c1cccs1,13.6%
CN1C(=O)CS(=O)(=O)C12CCN(C(=O)Cc1ccc(Cl)cc1)CC2,4.8%
CCC(c1ccccc1)N1Cc2cc(NS(=O)(=O)c3ccc(Cl)cc3)ccc2OC(C)C1=O (stereo unspecified),-23.5%
COc1ccc(-c2nc(C(C)C)nc3c2CN([S+](=O)([O-])c2cccc(C(F)(F)F)c2)CC3)cc1,-2.7%
CCc1nncn1C1CCN(S(=O)(=O)c2cc(Cl)ccc2OC)CC1,-6.9%
COCCOC1CCOC2(CCN(C(=O)c3sccc3C)CC2)C1 (stereo unspecified),4.8%
CNC(=O)c1cc[nH]c1C1CCCN(C(=O)c2cccs2)C1 (stereo unspecified),1.9%

# The results go on:
SMILES,NPR1 antag
Cc1noc(-c2cccn3c(CNC(=O)c4ccc5ccccc5n4)nnc23)n1,-1.6%
COc1ccc(OC)c(NC(=O)C2CC(=O)N(c3n[nH]c4cccc(F)c34)C2)c1 (stereo unspecified),0.7%
CN1CCC2(CC1)CN(C(=O)Cn1c(=O)oc3ccccc31)Cc1ccccc1O2,3.1%
CCCc1cc(N2CCC(N3CC(Oc4ccccc4F)C3)CC2)nc(C)n1,-10.7%
CN1CCCN(C(=O)c2ccc(F)cc2)c2ccccc21,1.1%
CC(C)C[C@@H](NC(=O)[C@@]1(O)C[C@@H](O)[C@H](O)[C@@H](NC(=O)c2ccc(F)c(Cl)c2)C1)C(N)=O,4.1%
CN(C)S(=O)(=O)N1CCC(C(=O)N2CCCCCCNC(=O)CC2)CC1,-0.9%
CN1[C@@H](CCC(=O)N2CC[C@@H](O)C2)CNC(=O)[C@@H]2[C@H]1CCN2C1CCOCC1,6.7%[70.6 µM]
O=C(NC1CC(=O)N(Cc2ccc(F)cc2)C1)c1ccn[nH]1 (stereo unspecified),7.4%
Cc1nc(Cn2nc(C3CCCNC3)n(-c3ccccc3)c2=O)cs1 (stereo unspecified),3.5%
COc1ccc(C(=O)NC(C(=O)N2CCCC2)C2CCN(C(=O)c3ccccc3)CC2)cc1 (stereo unspecified),3.6%
O=C(NC[C@H]1CCc2ccccc2O1)c1cccc(-n2cnnc2)c1,1.3%
Cc1ccc(NC(=O)CCn2ccn3nc4c(c3c2=O)CCCC4)cc1C,-17.4%
CC(C)CC(=O)N1C(C(=O)NCC2CCCO2)COC12CCC(C)CC2 (stereo unspecified),2.7%
Cc1ccc(C2=NC3(CCN(C(=O)CSc4ccccc4)CC3)ON2)cc1,-3.6%
CN1CCN(C(=O)c2ccc(CC3CCN(S(C)(=O)=O)CC3)cc2)CC1,1.1%
CN1C(=O)c2cccn2CC1CNC(=O)Cc1c[nH]c2ccccc12 (stereo unspecified),-8.0%
Cc1cnn(CCC(=O)NC2CCc3nnc(C)n3CC2)c1 (stereo unspecified),-11.7%
COc1ccc(NC(=O)c2ccc3c(c2)N(C)C2CCCCCN2C3=O)c(OC)c1 (stereo unspecified),3.1%
N#Cc1ccc(CN2CCC3(CC2)COc2ccccc2C(=O)N3)cc1,19.1%
O=C(NC[C@H]1Cn2cc(-c3ccc4c(c3)OCCCO4)nc2CO1)c1ccc2c(c1)OCO2,-17.1%
COCC1CN(C)CC12CCN(S(=O)(=O)c1cc(F)cc(F)c1)CC2 (stereo unspecified),5.2%
O=C(NCCc1cccs1)c1cc2n(n1)CC(c1ccc(Cl)cc1)OC2 (stereo unspecified),?
O=C(c1ccccc1Cl)N1CCN(c2cc(-c3ccccc3)[nH]n2)CC1,-12.9%
CCCN1C(CC(C)C)=NS(=O)(=O)c2cc(NC(=O)c3ccco3)ccc21,-13.1%
NC(=O)[C@@H](Cc1c[nH]c2ccccc12)NC(=O)[C@@]1(O)C[C@@H](O)[C@H](O)[C@@H](NC(=O)c2ccc(F)c(Cl)c2)C1,0.0%
CCCNC(=O)NCC1c2cc(OC)c(OC)cc2CCN1C(=O)NCC (stereo unspecified),5.1%
O=C(Nc1ccc(F)cc1)c1ccc2c(c1)OCCN(C1CCC1)C2,-17.6%[70.6 µM]
CCN1c2cc(C(=O)Nc3cccc(SC)c3)ccc2C(=O)N2CCCCC21 (stereo unspecified),1.4%
CNC(=O)N1CCC(C2CCN(Cc3ccncc3F)C2)CC1 (stereo unspecified),4.0%
O=C([C@@H]1C[C@H](F)CN1S(=O)(=O)c1ccc(F)cc1)N1CCOCC1,1.7%
CCCc1ccc(CN2CCC(c3nnc(Cn4ccnc4)n3C3CC3)CC2)o1,2.8%
Cc1cn2nc(C(=O)N3CCC(NC(=O)c4ccsc4)CC3)cc2c(=O)[nH]1,4.4%
CSCC(=O)N[C@H]1CCN2C(=O)c3cc(-c4ccc(F)cc4F)ccc3NC(=O)[C@H]12,2.1%[70.6 µM]
CC(C)c1nnc(C2CN(C(=O)c3cccc(Cl)c3)CC23CCOCC3)o1 (stereo unspecified),-16.5%
CCCCS(=O)(=O)N[C@@H]1CN(C2CCOCC2)C[C@H]1CN(C)C,0.4%
Cc1cccc(NC(=O)N2CCC(CCNC(=O)Cc3cccc(F)c3)CC2)c1,-8.0%
COc1ccc(CCC(=O)Nc2cccc(-c3nnc4n3CCCC4)c2)cc1,6.1%
CN(C)c1cccc(C(=O)Nc2ncc(-c3cnn(C)c3)c3c2OCC3)c1,6.2%[70.6 µM]
CCOc1ccccc1C1NC(=O)N(CC(=O)N2CCN(c3ccc(F)cc3)CC2)C2=C1C(=O)OC2 (stereo unspecified),-11.0%
CN1c2cc(C(=O)NC3CCCCCC3)ccc2C(=O)N2CCCC21 (stereo unspecified),-0.8%
O=C(c1cc(F)ccc1Cl)N1CCC(n2cc(-c3nc(C4CC4)no3)nn2)C1 (stereo unspecified),-1.9%
Cc1nc(-c2ccccc2)n(Cc2nc(-c3cccc(Cl)c3)oc2C)c(=O)c1CCO,1.4%
COc1ccc(-c2noc([C@@H](C)NCc3ccccc3)c2C(=O)O)cc1,0.4%[70.6 µM]
CCN1C(=O)CCN(C(=O)c2ccoc2)CC12CCOCC2,-2.4%
COc1cc(=O)n2c(c1C(=O)NCc1ccc(C(F)(F)F)cc1)CCCC2,-0.5%
Cc1ccc(C2(O)CCN(C(=O)CCn3ccc(=O)[nH]c3=O)CC2)nc1,1.5%
O=C1CCCCC(C(=O)NCc2ccc(F)cc2)N1 (stereo unspecified),3.8%
CCS(=O)(=O)N1CCCOCCNC(=O)[C@@H]2CCC[C@@H]21,1.4%

# Only part of the results is shown, so the mix of outcomes need not match the whole.
